From PubChem
TcdB GH inh: TcdB glycohydrolase inhibition; P18177; TcdB glycohydrolase enzymatic assay, plate reader; inhibition, % at 9.99 µM; 350,000 tested, 0.24% active; in the data active = inhibition above about 10%
Target sequence (P18177 whole entry, looked up): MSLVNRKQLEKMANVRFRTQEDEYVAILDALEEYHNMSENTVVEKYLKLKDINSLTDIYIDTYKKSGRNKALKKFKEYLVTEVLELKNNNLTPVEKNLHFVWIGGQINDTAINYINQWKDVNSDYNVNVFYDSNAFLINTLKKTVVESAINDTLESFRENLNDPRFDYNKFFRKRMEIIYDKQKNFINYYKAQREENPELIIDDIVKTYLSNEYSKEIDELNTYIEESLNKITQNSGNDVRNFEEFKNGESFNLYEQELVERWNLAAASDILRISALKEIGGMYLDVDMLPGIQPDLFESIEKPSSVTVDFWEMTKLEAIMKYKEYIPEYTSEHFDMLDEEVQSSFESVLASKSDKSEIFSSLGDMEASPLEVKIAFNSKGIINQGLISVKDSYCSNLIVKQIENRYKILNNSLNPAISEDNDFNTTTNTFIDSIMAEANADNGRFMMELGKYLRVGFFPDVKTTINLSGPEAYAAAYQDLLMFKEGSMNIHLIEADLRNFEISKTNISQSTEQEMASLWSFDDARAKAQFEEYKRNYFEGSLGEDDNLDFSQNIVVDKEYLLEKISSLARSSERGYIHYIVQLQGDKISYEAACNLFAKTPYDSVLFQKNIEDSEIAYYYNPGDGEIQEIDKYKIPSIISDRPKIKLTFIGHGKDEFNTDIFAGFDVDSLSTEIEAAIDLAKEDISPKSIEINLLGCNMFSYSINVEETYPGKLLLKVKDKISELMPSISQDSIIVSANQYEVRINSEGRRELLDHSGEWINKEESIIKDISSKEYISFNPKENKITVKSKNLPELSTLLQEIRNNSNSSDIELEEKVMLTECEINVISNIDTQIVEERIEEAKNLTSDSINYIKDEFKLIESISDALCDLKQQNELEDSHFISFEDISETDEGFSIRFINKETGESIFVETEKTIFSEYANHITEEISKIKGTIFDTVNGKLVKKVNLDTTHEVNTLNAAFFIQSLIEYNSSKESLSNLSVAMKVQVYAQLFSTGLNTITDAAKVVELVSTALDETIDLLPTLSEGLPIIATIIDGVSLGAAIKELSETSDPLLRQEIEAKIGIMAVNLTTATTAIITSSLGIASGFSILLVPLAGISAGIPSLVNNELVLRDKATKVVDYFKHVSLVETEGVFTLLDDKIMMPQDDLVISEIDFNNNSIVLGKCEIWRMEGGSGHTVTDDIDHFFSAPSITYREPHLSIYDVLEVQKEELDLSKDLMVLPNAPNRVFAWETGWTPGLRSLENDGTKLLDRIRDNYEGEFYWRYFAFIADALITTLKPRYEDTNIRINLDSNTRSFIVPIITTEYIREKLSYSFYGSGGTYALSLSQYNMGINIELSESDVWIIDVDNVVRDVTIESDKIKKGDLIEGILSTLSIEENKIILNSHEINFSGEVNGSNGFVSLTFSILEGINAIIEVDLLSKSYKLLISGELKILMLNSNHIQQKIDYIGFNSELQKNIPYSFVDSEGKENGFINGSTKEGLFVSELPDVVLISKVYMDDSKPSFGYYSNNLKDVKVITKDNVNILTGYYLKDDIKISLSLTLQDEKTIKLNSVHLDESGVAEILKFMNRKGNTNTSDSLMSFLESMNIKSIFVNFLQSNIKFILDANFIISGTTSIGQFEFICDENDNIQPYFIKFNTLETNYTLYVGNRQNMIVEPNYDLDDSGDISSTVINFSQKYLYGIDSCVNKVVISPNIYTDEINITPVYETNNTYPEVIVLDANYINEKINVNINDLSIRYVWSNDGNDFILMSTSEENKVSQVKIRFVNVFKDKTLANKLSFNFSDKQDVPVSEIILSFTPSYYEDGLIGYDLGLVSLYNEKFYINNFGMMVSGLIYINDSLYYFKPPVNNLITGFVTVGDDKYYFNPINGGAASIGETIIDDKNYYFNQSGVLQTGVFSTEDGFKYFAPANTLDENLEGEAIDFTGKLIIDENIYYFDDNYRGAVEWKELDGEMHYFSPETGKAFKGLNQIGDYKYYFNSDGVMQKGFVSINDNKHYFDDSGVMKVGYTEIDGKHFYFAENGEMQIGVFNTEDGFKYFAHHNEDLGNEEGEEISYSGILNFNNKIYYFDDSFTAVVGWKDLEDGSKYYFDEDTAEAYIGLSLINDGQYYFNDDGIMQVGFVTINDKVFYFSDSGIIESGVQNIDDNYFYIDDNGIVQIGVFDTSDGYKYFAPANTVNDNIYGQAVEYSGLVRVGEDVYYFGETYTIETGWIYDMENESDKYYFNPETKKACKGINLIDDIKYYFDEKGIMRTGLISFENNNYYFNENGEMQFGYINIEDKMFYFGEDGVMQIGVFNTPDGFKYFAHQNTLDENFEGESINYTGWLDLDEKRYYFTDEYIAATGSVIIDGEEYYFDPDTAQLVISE
UGM FP inh: blocks M. tuberculosis UGM enzyme. 320,000 tested, 0.06% active. inhibition, % at 10 µM. P9WIQ1. purified UGM, fluorescence polarization probe displacement; in the data active = inhibition above about 10%, passing the limit was not always enough
PfHsp40 rescue: rescue of PfHsp40-mediated yeast toxicity; AID 504582; 340,000 tested, 0.68% active; S. cerevisiae expressing PfHsp40, growth rescue, ATP luminescence; growth rescue, % at 12.5 µM; in the data active = growth rescue above about 28%, passing the limit was not always enough;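 note: yeast W303a lacking pdr1 and pdr3 grown in galactose medium; growth measured after three days at 30 °C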
Y pestis TopoI: inhibitors of Yersinia pestis topoisomerase I. Y. pestis Topo-I cleavage product accumulation, plate reader. activity, % at 10 µM. 360,000 tested, 0.064% active; in the data active = activity above about 50%, passing the limit was not always enough; note: inactives centre near 2
Vc quorum ag: induces V. cholerae light production without autoinducers; V. cholerae BH1578 lux reporter, luminescence, 6 h; 350,000 tested, 0.16% active; activation, % at 18.7 µM; in the data active = activation mostly above about 9.7%, no sharp cut-off; note: not every result past the cut was called active; inactives centre near 0; reference of the scale not given here
Starred values were filed as active, the others as inactive; i = inactive; x = not tested or not shown; & = joins results of further samples. These rows are one share of the data; count on the stated rates, not on these rows.

Sequence of screens: TcdB GH inh | UGM FP inh | PfHsp40 rescue | Y pestis TopoI | Vc quorum ag
CN(CCNC(=O)c1cc2c(-c3ccccc3F)nn(C)c2s1)C1CCCCC1
 : 0.2 | 0.1 | -1.6 | -10.9 | -0.1
Cc1ccc(NC(=O)c2sccc2SCc2cccc(C(F)(F)F)c2)cc1
 : x | -0.3 | 1.5 | 2.3 | i
C[N+]1(C)CCC(OC(=O)C(O)(c2ccccc2)C2CCCC2)C1 (centres undefined)
 : 0.9 | 2.4 | -0.3 | 4.8 | -5.8
Cc1ccc(S(=O)(=O)n2c(C)nc3ccccc32)cc1
 : 0.1 | -1.3 | -0.2 | 2.5 | 0.2
COc1ccc2[nH]c3ccc(OC)cc3c2c1
 : x | 1.6 | 1.3 | -6.5 | i
CCCc1cc(=O)oc2c(C)c(O)c(CN3CCCCC3)cc12
 : x | -0.9 | 0.5 | -9.1 | -0.1
C=CCn1c(CCNC(=O)c2ccccc2F)nnc1SCC(=O)Nc1ccc(OC)cc1
 : -0.3 | -0.3 | -0.8 | 15.5 | 1.4
N#Cc1nc(-c2cccc3ccccc23)oc1N
 : -0.9 | -6.2 | 0.6 | -19.2 | i
CN1CCc2c(sc3c2c(NCc2ccco2)nc2nnnn23)C1
 : x | 0.7 | -1.1 | -4.5 | -0.3
Cc1cc(=O)oc2c3c(cc(OCC(=O)N[C@H](C(=O)O)c4ccccc4)c12)OC(C)(C)CC3
 : -0.5 | 1.4 | 2.5 | 8.1 | -0.4

More results follow:
Sequence of screens: TcdB GH inh | UGM FP inh | PfHsp40 rescue | Y pestis TopoI | Vc quorum ag
Cc1cc(OCC(=O)NCC(O)c2ccccc2)c2c(C)c(C)c(=O)oc2c1 (centres undefined)
 : 0.4 | -2.1 | -1.2 | -1.0 | 0.1
NS(=O)(=O)c1ccc(NC(=O)Nc2ccc(Cl)cc2)cc1
 : 0.0 | 2.7 | -0.5 | -1.9 | i
COCc1cc(C)nc(SCC(=O)c2ccc(O)c(O)c2)c1C#N
 : -1.0 | 0.1 | -0.8 | 9.9 | i
CN[C@@H]1CC[C@H](c2ccc(Cl)c(Cl)c2)c2ccccc21
 : 0.2 | 0.0 | 0.6 | -2.1 | i
Cc1cc(C)c(/C=C2\C(=O)Nc3ccccc32)[nH]1
 : 0.9 | -1.5 | 2.5 | -11.7 | 0.7
CCOC(=O)c1cc(C(C)C)sc1NC(=O)COC(=O)c1nccnc1N
 : 5.2 | x | 2.5 | 9.3 | i
CCCn1c(=NC(C)=O)c(C(=O)OCC)cc2c(=O)n3ccccc3nc21
 : x | -3.4 | -0.4 | -1.2 | i
COc1ccc2sc(-c3ccc(N(C)C)cc3)c(C#CCO)c2c1
 : 0.1 | -1.0 | 21.7 | -3.4 | 8.3
N#Cc1ccc(CNC(=O)N2CCOCC2)cc1
 : 0.2 | 3.0 | -1.1 | 1.3 | 0.0
CCN(CC)CC(=O)Nc1c(C)cccc1C
 : 0.2&-0.1&0.9 | -0.7 | -0.7&-1.1&-1.6 | 0.4&3.5&4.3 | 4.2&-3.0

Further entries.
Sequence of screens: TcdB GH inh | UGM FP inh | PfHsp40 rescue | Y pestis TopoI | Vc quorum ag
O=C(CCCCCCC(=O)Nc1ccccc1)NO
 : 0.5 | 1.0 | -1.7 | -6.7 | 1.5
Cc1ccc2nc3c(cc(C(=O)NCCc4ccccc4)c(=N)n3CC3CCCO3)c(=O)n2c1 (centres undefined)
 : 1.4 | -2.8 | -0.3 | 0.6 | -0.2
O=C(CCCN1CCC2(CC1)C(=O)NCN2c1ccccc1)c1ccc(F)cc1
 : 1.2 | -0.6 | 1.9 | 12.0 | -0.2
O=C(N/N=C/c1ccc(Sc2ccccn2)o1)c1cccc([N+](=O)[O-])c1
 : 2.7 | 4.1 | -0.8 | -8.5 | -3.8
Cc1cc(=O)oc2c3c(cc(OCC(=O)NCc4ccccn4)c12)OC(C)(C)CC3
 : 1.2 | -0.4 | -0.5 | 8.4 | -0.3
COc1cccc(C(=O)Nc2cc3c(cc2N2CCOCC2)n(C)c(=O)n3C)c1
 : 0.5 | -0.4 | -1.6 | -7.3 | i
COc1ccccc1CCNC(=O)C1CCN(C(=O)/C=C/c2ccccc2)CC1
 : -0.1 | 0.8 | 0.3 | 38.5 | i

Given tab-delimited: part of the list above
compound	TcdB GH inh	UGM FP inh	PfHsp40 rescue	Y pestis TopoI	Vc quorum ag
COCc1cc(C)nc(SCC(=O)c2ccc(O)c(O)c2)c1C#N	-1.0	0.1	-0.8	9.9	i
CN[C@@H]1CC[C@H](c2ccc(Cl)c(Cl)c2)c2ccccc21	0.2	0.0	0.6	-2.1	i
Cc1cc(C)c(/C=C2\C(=O)Nc3ccccc32)[nH]1	0.9	-1.5	2.5	-11.7	0.7
CCOC(=O)c1cc(C(C)C)sc1NC(=O)COC(=O)c1nccnc1N	5.2	x	2.5	9.3	i
CCCn1c(=NC(C)=O)c(C(=O)OCC)cc2c(=O)n3ccccc3nc21	x	-3.4	-0.4	-1.2	i
COc1ccc2sc(-c3ccc(N(C)C)cc3)c(C#CCO)c2c1	0.1	-1.0	21.7	-3.4	8.3
N#Cc1ccc(CNC(=O)N2CCOCC2)cc1	0.2	3.0	-1.1	1.3	0.0
CCN(CC)CC(=O)Nc1c(C)cccc1C	0.2&-0.1&0.9	-0.7	-0.7&-1.1&-1.6	0.4&3.5&4.3	4.2&-3.0
O=C(CCCCCCC(=O)Nc1ccccc1)NO	0.5	1.0	-1.7	-6.7	1.5
Cc1ccc2nc3c(cc(C(=O)NCCc4ccccc4)c(=N)n3CC3CCCO3)c(=O)n2c1 (centres undefined)	1.4	-2.8	-0.3	0.6	-0.2
O=C(CCCN1CCC2(CC1)C(=O)NCN2c1ccccc1)c1ccc(F)cc1	1.2	-0.6	1.9	12.0	-0.2
O=C(N/N=C/c1ccc(Sc2ccccn2)o1)c1cccc([N+](=O)[O-])c1	2.7	4.1	-0.8	-8.5	-3.8
